Compound activity as filed in PubChem BioAssay.
UCH37 inh: human UCH37 deubiquitinating enzyme inhibition | inhibition, % (no concentration beside the values) | 330,000 tested, 0.33% active | purified proteasome/UCH37, Ub-AMC cleavage fluorescence | Q9Y5K5 | AID 588478;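 active = mean of two replicates above 20%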;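 also: 0% = compound-free wells with enzyme and 100% = wells lacking proteasome; stock transfer was 100 nL into about 20 µL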
Target sequence (Q9Y5K5 whole entry, looked up): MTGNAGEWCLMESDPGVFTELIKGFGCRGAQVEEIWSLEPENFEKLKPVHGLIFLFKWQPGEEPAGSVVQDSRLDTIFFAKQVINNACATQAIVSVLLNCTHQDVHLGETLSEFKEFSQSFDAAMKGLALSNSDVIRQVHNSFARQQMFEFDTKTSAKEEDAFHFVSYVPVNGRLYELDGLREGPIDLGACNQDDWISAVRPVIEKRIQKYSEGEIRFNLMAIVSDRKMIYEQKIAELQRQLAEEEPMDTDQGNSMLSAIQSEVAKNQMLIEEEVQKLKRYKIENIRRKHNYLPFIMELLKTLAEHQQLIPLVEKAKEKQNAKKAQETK
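Material: human UCH37 enzyme supplied as purified proteasome complex. Measure: % inhibition of Ub-AMC cleavage fluorescence. Medium: pH 7.4 Tris-HCl (50 mM) with ovalbumin, ATP-MgCl2, DTT. Times: 30 min preincubation with enzyme, 25 min cleavage at room temperature. Detection: AMC fluorescence intensity at 355/460 nm.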
E coli growth: inhibitors of Escherichia coli growth | OD600, 23 h; active compounds read low | OD600 absorbance (no concentration beside the values) | 330,000 tested, 0.21% active;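 active = OD600 absorbance below the run mean of sample wells minus 3.6 SD, in any replicate, cut at about 0.56 in these data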;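 also: stock transfer was 300 nL into about 60 µL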
ALR H2O2 inh: blocks human ALR sulfhydryl oxidase activity; P55789; purified ALR, DTT oxidation, H2O2 HRP-luminol luminescence; inhibition, % (no concentration beside the values); 290,000 tested, 3.8% active; AID 485317;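 active = mean and each replicate at 75% or more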;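 also: stock transfer was 7.5 nL into about 7.5 µL; 0% = neutral wells and 100% = wells with inactivated enzyme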
FGF22 binding: FGF22 (human) thermal shift binding; recombinant FGF22 thermal shift, SYPRO orange fluorescence; percent of sucrose octasulfate shift, DMSO zero; Q9HCT0; 340,000 tested, 1.5% active; calls only at 9.99 µM;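 active = melting point raised past a set limit in the mean and every replicate; three in four hits are not shown here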
Target sequence (Q9HCT0 whole entry, looked up): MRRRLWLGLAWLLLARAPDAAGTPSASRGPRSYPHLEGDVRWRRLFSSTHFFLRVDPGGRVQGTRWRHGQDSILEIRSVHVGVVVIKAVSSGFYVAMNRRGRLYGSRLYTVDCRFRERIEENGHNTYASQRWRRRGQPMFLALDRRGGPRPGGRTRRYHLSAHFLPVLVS
Ecoli rRNA inh: inhibits bacterial ribosomal RNA function over humanized ribosomes; E. coli WT GFP vs humanized-ribosome RFP mutants, fluorescence, 24 h; active compounds read low; DMSO median 0, no signal -100; GFP signal change (wild-type ribosome), % (test concentration not listed); 350,000 tested, 1.6% active;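 active = significant combined selectivity score with lowered wild-type GFP, culture density cut under 30%, mutant RFP and density less affected; inactive = any of these conditions unmet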; also: one replicate is shown; some compounds called inactive have numbers as strong as hits
HNF4A DNA FP: change in binding of human HNF4 alpha to DNA | P41235 | 360,000 tested, 0.3% active | AID 1224865 | HNF4a-FITC DNA binding, fluorescence polarization, 1 h | activity change, % at 10 µM; in the data active = activity change above about 30%, passing the limit was not always enough;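 also: controls were the assay level and a saturating level of protein; the project sought stronger binding though the title names inhibitors; some compounds called inactive have numbers as strong as hits; positive values seem to mean higher polarization but the record does not say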
Target sequence (P41235 whole entry, looked up): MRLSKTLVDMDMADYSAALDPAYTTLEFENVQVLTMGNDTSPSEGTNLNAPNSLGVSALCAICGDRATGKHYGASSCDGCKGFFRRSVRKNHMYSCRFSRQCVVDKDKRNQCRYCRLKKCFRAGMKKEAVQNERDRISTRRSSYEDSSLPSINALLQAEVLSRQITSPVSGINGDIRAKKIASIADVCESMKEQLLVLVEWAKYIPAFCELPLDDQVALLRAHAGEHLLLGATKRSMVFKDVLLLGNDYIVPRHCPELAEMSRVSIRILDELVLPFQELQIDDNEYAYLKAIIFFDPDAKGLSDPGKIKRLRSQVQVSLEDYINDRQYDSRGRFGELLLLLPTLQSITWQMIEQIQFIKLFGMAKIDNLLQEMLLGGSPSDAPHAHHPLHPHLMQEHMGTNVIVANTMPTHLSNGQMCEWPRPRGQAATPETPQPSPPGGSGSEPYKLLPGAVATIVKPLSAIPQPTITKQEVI
Beta2AR agonist: human beta-2 adrenergic receptor agonism by FAP; response, % (no concentration beside the values); P07550; Am2.2-beta2AR cells, FAP receptor internalization, flow cytometry; reference of the scale not given here; 340,000 tested, 0.43% active; AID 504454;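 active = response above a set limit, near 3 SD of response in nonfluorescent compounds, cut at about 42% in these data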;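 also: stock transfer was 100 nL into about 11 µL; a reference agonist was the positive control; negative values mostly stem from fluorescent compounds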
Ecoli rRNA inh OD600: further read-out of Ecoli rRNA inh, marked with its call; OD600 change, %; measured here: OD600 growth;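 optical density of the mix in the first replicate; 0 = DMSO median and -100 = no signal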
Ecoli rRNA inh RFP: recorded beside Ecoli rRNA inh, whose call it bears; RFP signal change, %; measured here: RFP humanized mutant strains;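 first replicate; 0 = DMSO median and -100 = no signal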
Starred values were filed as active, the others as inactive; i = inactive; x = no result given.

SMILES	UCH37 inh	E coli growth	ALR H2O2 inh	FGF22 binding	Ecoli rRNA inh	Ecoli rRNA inh OD600	Ecoli rRNA inh RFP	HNF4A DNA FP	Beta2AR agonist
O=C(CSc1n[nH]c(-c2ccco2)n1)N1c2ccccc2Sc2ccccc21	3.4	0.68	63	x	x	x	x	1.4	0
Cc1c(C(=O)N(CC(C)C)c2c(N)n(Cc3ccccc3)c(=O)[nH]c2=O)sc2nc3n(c(=O)c12)CCC3	0.7	0.69	-19	i	19	16	3.7	5.0	-2
CN(C)C(=O)CSc1ccc(S(=O)(=O)N2CCOCC2)cn1	2.2	0.71	x	i	11	11	1.7	-2.8	8
COC(=O)c1ccc(OCC(=O)c2ccc(O)cc2O)cc1	7.9	0.69	1	x	x	x	x	-2.3	4
CC(C)OP(=O)(OC(C)C)C1(NS(=O)(=O)c2ccc(Cl)cc2)C=C(Cl)C(=O)C(Cl)=C1	9.9	0.68	23	i	-12	-17	-0.6	1.4	0
CCn1c(=O)cc(SCC(=O)NCCC2=CCCCC2)c2ccccc21	6.3	0.68	-4	x	x	x	x	0.0	-3
CC(=O)Nc1ccc(Nc2nc3ccccc3nc2NS(=O)(=O)c2ccc(Cl)c([N+](=O)[O-])c2)cc1	8.0	0.67	x	i	-5	-2	-2.6	-11	-5
Cc1ccc(N2CC(C(=O)NCCC3=CCCCC3)CC2=O)cc1 (stereo not drawn)	41*	0.7	-3	i	3	5	-1.4	0.2	-8
COc1ccc(CC(=O)Nc2cccc(S(=O)(=O)N3CCCC3)c2)cc1OC	5.5	0.68	0	i	x	x	x	1.2	3
CC(=O)N1CCN(C(=O)C2(NC(=O)Nc3ccccc3Cl)CCCCC2)CC1	2.4	0.67	-3	i	-1	0	-0.5	0.4	-1
S=C1NNC2(CC3CC2C2CCCC32)NN1 (stereo not drawn)	5.6	0.7	12	i	9	3	0.8	-2.6	-5
O=C(CNC(=O)OCc1ccccc1)NC1(C(=O)O)CCCC1	2.3	0.68	x	i	15	14	2.4	-1.6	-2

Just HNF4A DNA FP and Ecoli rRNA inh OD600, for 2 of the compounds above:
| Structure | HNF4A DNA FP | Ecoli rRNA inh OD600 |
| --- | --- | --- |
| CC(=O)N1CCN(C(=O)C2(NC(=O)Nc3ccccc3Cl)CCCCC2)CC1 | 0.4 | 0 |
| S=C1NNC2(CC3CC2C2CCCC32)NN1 (stereo not drawn) | -2.6 | 3 |

(list continues)
SMILES	UCH37 inh	E coli growth	ALR H2O2 inh	FGF22 binding	Ecoli rRNA inh	Ecoli rRNA inh OD600	Ecoli rRNA inh RFP	HNF4A DNA FP	Beta2AR agonist
Cc1ccc(C(=O)Nc2ccc(C)c(S(=O)(=O)N(C)C)c2)s1	1.3	0.71	x	x	x	x	x	-0.8	8
Nc1nccnc1C(=O)OCC(=O)C12CC3CC(CC(C3)C1)C2	i	0.62	1	i	4	3	1.5	6.8	-2
OC(c1ccc(Cl)cc1)c1ncc(-c2ccc(Oc3ccccc3)cc2)[nH]1 (stereo not drawn)	x	x	x	i	-62	-79	-17	-1.9	x
O=C(CNC(=O)c1ccc(Cl)cc1)NCC(F)(F)F	4.4	0.73	-4	x	x	x	x	-1.2	-7
O=C(Cn1c(-c2cscn2)nc2ccccc21)Nc1cc(F)ccc1F	-0.2	0.74	-5	x	x	x	x	0.6	-4
CCCCN(C(=O)COC(=O)c1ccc(C=O)cc1)c1c(N)n(CCC)c(=O)[nH]c1=O	0.1	0.63	x	i	9	15	-2.3	-1.9	-3
CC(=O)Nc1ccc(C(=O)COC(=O)CCN2C(=O)C3CC=CCC3C2=O)cc1 (stereo not drawn)	4.1	0.68	-3	i	6	8	4.7	7.8	-3
COc1ccc2[nH]c(C(=O)Nc3ccc4c(c3)OCO4)cc2c1	1.3	0.65	-21	i	0	10	-1.8	-0.1	9
Cc1ccc(C2=NS(=O)(=O)N(C)C(C(=O)NCc3ccc(F)cc3)=C2)cc1	3.8	0.7	-5	i	-4	-29	-2.7	0.1	6
CN(CCc1ccccn1)C(=O)CCC1CCCN(C(=O)c2ccsc2)C1 (stereo not drawn)	1.0	0.68	-4	i	2	12	-0.3	-0.2	8
Cc1cccc(-n2nnnc2SCc2csc(-c3ccccc3)n2)c1	1.2	0.68	44	x	x	x	x	-1.8	5
COc1cccc(N2CCN(C(=O)c3ccc(=O)oc3)CC2C)c1 (stereo not drawn)	1.2	0.62	x	x	x	x	x	-3.1	1
CNc1cc(-c2cccc(OC)c2F)nc2ccnn12	x	x	x	i	6	4	-0.4	4.3	x
O=C(c1ccco1)N1CCN(C(=O)C2CC(=O)N(c3ccc(Cl)cc3)C2)CC1 (stereo not drawn)	0.4	0.66	-1	i	-2	2	3.0	2.0	1
O=C(NCc1ccncc1)c1cccc(S(=O)(=O)Nc2ccc(SC(F)F)cc2)c1	1.8	0.67	32	x	-28	-26	-6.3	1.8	16
Cc1nonc1NC(=O)c1ccccc1Br	5.2	0.72	1	x	x	x	x	3.5	-6
O=C(NNS(=O)(=O)c1ccc([N+](=O)[O-])cc1)c1ccc2ccccc2c1O	1.0	0.64	98*	i	-6	-2	1.2	1.9	-3
COc1ccccc1CNC(=O)COC(=O)Cn1cnc2c1c(=O)n(C)c(=O)n2C	x	x	x	i	4	12	2.7	1.1	x
Cc1ccc(S(=O)(=O)NCc2ccccc2)cc1C(=O)N1CCCC(C(F)(F)F)C1 (stereo not drawn)	-1.4	0.72	1	i	-2	10	0.7	-1.3	0
O=C1Nc2ccc(Br)cc2C1(O)c1ccccc1 (stereo not drawn)	2.2	0.68	-5	i	-4	-10	-0.1	3.9	7
C#CCOCCOCCOCCNc1nc(N2CCN(C(=O)CCCCCCCCCCNC(=O)Cn3cc(CCCCCN)nn3)CC2)nc(N2CCN(C(=O)CCCCCCCCCCNC(=O)[C@@H](CCSC)n3cc(CCO)nn3)CC2)n1	x	x	-9	x	-48	-57	-5.6	16	75*
CC(=O)C1C(c2ccc([N+](=O)[O-])cc2)C2C(C)=NN=C2CC1(C)O (stereo not drawn)	2.8	0.66	x	i	10	6	0.3	0.7	-6
CC1(C)NC(=O)N(CC(O)COc2ccc(-c3ccc(C#N)cc3)cc2)C1=O (stereo not drawn)	-15	0.68	3	x	-11	-11	-1.1	-3.8	4
CCOC(=O)c1sc2nc(C)nc(SCC(=O)N(CC)C3CCS(=O)(=O)C3)c2c1C (stereo not drawn)	4.9	0.66	-3	i	-2	0	-2.1	9.9	-1

Rewritten with two lines to a compound: entries from further up.
Order of values: UCH37 inh	E coli growth	ALR H2O2 inh	FGF22 binding	Ecoli rRNA inh	Ecoli rRNA inh OD600	Ecoli rRNA inh RFP	HNF4A DNA FP	Beta2AR agonist
- Cc1nonc1NC(=O)c1ccccc1Br
  5.2	0.72	1	x	x	x	x	3.5	-6
- C#CCOCCOCCOCCNc1nc(N2CCN(C(=O)CCCCCCCCCCNC(=O)Cn3cc(CCCCCN)nn3)CC2)nc(N2CCN(C(=O)CCCCCCCCCCNC(=O)[C@@H](CCSC)n3cc(CCO)nn3)CC2)n1
  x	x	-9	x	-48	-57	-5.6	16	75*
- O=C(c1ccco1)N1CCN(C(=O)C2CC(=O)N(c3ccc(Cl)cc3)C2)CC1 (stereo not drawn)
  0.4	0.66	-1	i	-2	2	3.0	2.0	1
- CC(=O)C1C(c2ccc([N+](=O)[O-])cc2)C2C(C)=NN=C2CC1(C)O (stereo not drawn)
  2.8	0.66	x	i	10	6	0.3	0.7	-6
- CC1(C)NC(=O)N(CC(O)COc2ccc(-c3ccc(C#N)cc3)cc2)C1=O (stereo not drawn)
  -15	0.68	3	x	-11	-11	-1.1	-3.8	4
- COc1ccccc1CNC(=O)COC(=O)Cn1cnc2c1c(=O)n(C)c(=O)n2C
  x	x	x	i	4	12	2.7	1.1	x

Other records follow:
SMILES	UCH37 inh	E coli growth	ALR H2O2 inh	FGF22 binding	Ecoli rRNA inh	Ecoli rRNA inh OD600	Ecoli rRNA inh RFP	HNF4A DNA FP	Beta2AR agonist
COc1ccc(C(=O)NCC2OCCc3ccccc32)cc1OC (stereo not drawn)	2.9	0.66	-10	i	3	3	3.2	0.0	12
COc1ccc(CNC(=O)CN2C(=O)C3C4C=CC(C4)C3C2=O)cc1 (stereo not drawn)	3.0	0.72	-6	i	17	14	3.8	-2.2	7
CCN(c1cccc(C)c1)S(=O)(=O)c1cc(CN2C(=O)c3cccnc3C2=O)ccc1OC	0.7	0.64	-16	i	0	10	-1.8	-6.5	3
COc1cccc(-n2c(SC3CCOC3=O)nc3ccccc3c2=O)c1 (stereo not drawn)	0.8	0.74	95*	x	x	x	x	0.3	-1
O=C(NCc1ccccn1)C(=O)Nc1nc(C23CC4CC(CC(C4)C2)C3)cs1	2.1	0.69	-1	i	-10	-13	-0.4	-1.1	1
O=C(Nc1nc(=S)ss1)c1c(F)cccc1F	5.4	0.68	-24	x	x	x	x	4.4	9
O=C(CN1C(=O)c2ccccc2S1(=O)=O)Nc1ccc(S(=O)(=O)N2CCCC2)cc1	2.4	0.69	0	x	x	x	x	0.4	14
COC(=O)[C@]1(Cc2ccccc2)N[C@H](CN(C)C(=O)Nc2ccc(OC)cc2)[C@@H]2C(=O)N(C)C(=O)[C@@H]21	3.5	0.67	x	i	10	5	0.8	-2.7	-8
COC(=O)[C@H](Cc1ccccc1)NC(=O)C1CCN(C(=O)[C@H](C)NS(=O)(=O)c2ccc(C)cc2)CC1	2.5	0.72	-3	i	2	-2	-2.2	-1.7	11
CS(=O)(=O)Nc1ccccc1C(=O)NCCSc1ccc(Cl)cc1	-14	0.7	-11	i	-35	-33	-2.5	2.3	4
Cc1cccc(NS(=O)(=O)c2cccc3nonc23)c1	5.7	0.67	6	x	x	x	x	3.8	4
O=C(NCc1ccccn1)c1ccc(COc2ccc(Cl)cc2)o1	1.7	0.66	37	x	x	x	x	3.4	1
COc1ccc(NC(=O)C(=O)NCCN2CCN(C(=O)c3cccs3)CC2)cc1	2.3	0.73	-3	x	x	x	x	-0.1	2
COCCNC(=O)/C(C#N)=C/c1cn(CC(=O)NCc2ccco2)c2ccccc12	-79	0.65	-4	i	10	12	0.7	-4.8	0
Cc1cc(OCc2cc(C(=O)NC3CCC3)no2)cc(C)c1Cl	0.1	0.68	7	x	x	x	x	3.7	2
COc1ccc(CCNC(=O)CCNC(=O)c2ccccc2Cl)cc1	-0.3	0.6	x	i	2	5	-2.1	-2.3	0
CC(OC(=O)/C=C/c1cccc(F)c1)C(=O)NC1CCCCC1C (stereo not drawn)	2.3	0.7	-3	i	5	13	-0.9	-0.2	-1
S=C(N=Nc1ccccc1)NNc1ccccc1	1.2	0.68	99*	i	5	-16	2.2	0.5	-8
COCCNC(=O)[C@H](CSCc1ccccc1)N1Cc2ccccc2C1=O	2.2	0.67	-7	i	-3	-1	-5.6	-1.3	-2
CCCC(=O)N1CCCC1(C)C(=O)Nc1ccc(-n2cccc2)cc1 (stereo not drawn)	x	x	x	i	1	5	-0.5	1.4	x
O=C(OCCCC(=O)N1CCOCC1)c1ccccc1	-1.5	0.7	7	x	x	x	x	0.7	2
COc1cc(NC(=O)Nc2nc(C(N)CCc3ccccc3)cs2)cc(OC)c1OC (stereo not drawn)	x	x	x	i	-7	-24	-2.9	0.7	x
CCOC(=O)C1(CCc2ccccc2)CCN(Cc2cnc(N(C)C)s2)CC1	1.5	0.67	-10	i	-13	-13	3.0	-0.7	7
COc1cc2c(c(OC)c1OC)-c1c(cc3c(c1OC)OCO3)C1OC2[C@@H](C)[C@H]1C (stereo partly drawn)	4.2	x	4	i	-15	-23	-9.3	-0.4	0

These rows are one share of the data; the hit share may differ from the screen's.
